VDR inh: vitamin D3 receptor (human) inhibition; P11473; VDR-SRC2-3 peptide fluorescence polarization, 2 h; Potency, µM, for the others: max response, negative = inhibition, most hits filed as inhibitors; hit rate 0.93% among 400,000; AID 504847; active = well fitted inhibition curve with a large enough effect; inconclusive = small, poorly fitted or top-dose-only effect, or another doubt; inactive = no such curve, though single readings can be large or run the other way; also: series mostly up to about 120 µM
Target sequence (P11473 whole entry, looked up): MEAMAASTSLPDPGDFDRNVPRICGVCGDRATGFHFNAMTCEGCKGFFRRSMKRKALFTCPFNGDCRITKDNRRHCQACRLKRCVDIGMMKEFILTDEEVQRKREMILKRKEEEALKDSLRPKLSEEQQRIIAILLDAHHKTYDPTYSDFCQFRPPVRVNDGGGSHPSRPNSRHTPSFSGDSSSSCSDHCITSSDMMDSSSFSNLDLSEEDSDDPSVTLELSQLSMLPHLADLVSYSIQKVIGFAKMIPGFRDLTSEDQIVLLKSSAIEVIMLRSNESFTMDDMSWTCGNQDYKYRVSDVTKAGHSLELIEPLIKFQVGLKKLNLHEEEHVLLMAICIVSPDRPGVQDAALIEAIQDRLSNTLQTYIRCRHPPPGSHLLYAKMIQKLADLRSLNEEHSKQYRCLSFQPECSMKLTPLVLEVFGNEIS
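FP read-out; VDR + SRC2-3 coactivator peptide; 23 nl compound by pintool; 2 h RT incubation; reagents held at 4 deg C, protected from light.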
An asterisk follows results filed as active; ? = inconclusive; & = joins results of further samples. % is scaled to controls: 0 for no effect and ±100 for the full control effect; potency is read from the fitted curve at half-maximal effect. Not all compounds are listed. The share of hits here may be higher or lower than overall.

No.	Molecule	VDR inh
1	COC(=O)c1cc(C(=O)c2cc(F)ccc2O)cn2c(=O)c3c(C)c(C)sc3nc12	-25%
2	CCn1c(=O)cc(OCC(=O)NCC2CCCO2)c2ccccc21 (centres undefined)	-2%
3	O=C(COC(=O)/C=C/c1cccc(Cl)c1)NC1CC1	1%
4	CCCN1C(=O)c2[nH]nc(-c3cccc(OC)c3)c2C1c1ccccn1 (centres undefined)	-6%
5	Cc1ccc(CN2CCN(C3CCN(C(=O)Nc4ccc(C)cc4Cl)CC3)C(=O)C2=O)cc1	11%
6	Cc1csc(C2=C(O)CN(c3ccc4c(c3)OCCOCCOCCOCCO4)C2=N)n1	8%
7	Cc1cccc(NC(=O)CSc2nc3n[nH]c(C)c3c(=N)n2-c2cccc(Cl)c2)c1	0%
8	C=CCN1C(=O)C(Cc2ccc(SC(F)F)cc2)SC1=Nc1ccc(C(=O)O)cc1 (centres undefined)	-4%
9	O=C(CSc1ncn[nH]1)NCCOc1ccccc1	6%
10	Cc1ccc(C(C)(O)CS(=O)(=O)Cc2ccccc2Cl)cc1 (centres undefined)	0%
11	Clc1ccccc1-c1nc(-n2ccnc2)c2ccccc2n1	56µM*
12	COc1ccccc1C(=O)N(NC(=O)Oc1ccccc1)C(C)(C)C	-13%
13	COc1ccc(NC(=O)C(NC(=O)CC2NC(=O)NC2=O)c2ccccc2)cc1 (centres undefined)	-6%
14	CN(C)CCN(C(=O)c1ccc(S(=O)(=O)N(C)c2ccccc2)cc1)c1nc2cc3c(cc2s1)OCCO3	2%
15	COc1ccc(OCCOC(=O)c2ccc(-n3cnnn3)cc2)cc1	-5%
16	O=C1c2ccccc2C(=O)N1OCCOCCOCCBr	17%
17	CCCC(=O)N1CCN(c2nc3ccccc3s2)CC1	-2%
18	Cc1ccc(-c2nc3cnccn3c2Nc2ccc(C(C)C)cc2)o1	?
19	CCOC(=O)c1cc(-c2ccccc2)nn1CC1CC(c2cccc([N+](=O)[O-])c2)=NO1 (centres undefined)	9%
20	COc1cccc(C(=O)N2N=C(c3ccccn3)CC2(O)C(F)(F)F)c1 (centres undefined)	?
21	Cc1ccc(S(=O)(=O)N2CCC(C(=O)Nc3ccc(C)c(Cl)c3)CC2)cc1	-1%
22	CCOC(=O)C(Cc1ccccc1)NC(=O)CNC(C)=O (centres undefined)	14%
23	CCN(C(C)=O)c1nc(CSc2nnc(NC(C)C)s2)cs1	8%
24	COCCCNC(=O)Cn1nc(-c2cccc(OC)c2)ccc1=O	-14%
25	C[C@H]1O[C@@H](O[C@H]2[C@@H](O)C[C@H](O[C@H]3[C@@H](O)C[C@H](O[C@H]4CC[C@@]5(C)[C@H](CC[C@@H]6[C@@H]5C[C@@H](O)[C@]5(C)[C@@H](C7=CC(=O)OC7)CC[C@]65O)C4)O[C@@H]3C)O[C@@H]2C)C[C@H](O)[C@@H]1O	2%&-9%&12%

No.	Molecule	VDR inh
26	Cc1occc1C(=O)N(C)CC1CCCN(CCc2ccccc2F)C1 (centres undefined)	3%
27	CCCCC[C@@H]1C=C(C(=O)O)[C@H](c2cccc(C)c2)N1S(=O)(=O)c1ccc(C)cc1	-13%
28	CCOC(=O)COc1ccc(C(=O)CC)cc1OC	-19%
29	Cc1ccc(Nc2nc(-c3ccccc3)c(CC(=O)O)s2)cc1	9%
30	COc1cc(OC)cc(-c2cc(NC(C)=O)n[nH]2)c1	4%
31	O=S1(=O)CCN(C(CO)c2ccccc2)CC1 (centres undefined)	-8%
32	COc1ccccc1OC(C)C(=O)Nc1ccc2c(c1)OCCO2 (centres undefined)	6%
33	CCS(=O)(=O)N1CC(=O)N(c2ccc(Cl)cc2)C(C)(C(=O)NC2CCCCCC2)C1 (centres undefined)	1%
34	C=CCOC(=O)C1=C(C)N=C2SCCC(=O)N2C1c1cccs1 (centres undefined)	-12%
35	S=C(NCCc1ccccc1)NC1CCCCCC1	-8%
36	COc1ccc(OC)c(S(N)(=O)=O)c1	-2%
37	COc1ccc(C(NC(=O)C(C)C)c2c(O)ccc3ccccc23)cc1 (centres undefined)	24%
38	CCN(CC)S(=O)(=O)c1ccc(NC(=O)c2cnccn2)cc1	-13%
39	FC(F)(F)c1cnc(C(c2ccccn2)c2ncn[nH]2)c(Cl)c1 (centres undefined)	-11%
40	COc1ccc(-c2ccc(NS(=O)(=O)c3cccc([N+](=O)[O-])c3)cc2)nn1	12%
41	CCc1ccc(C(C)NC(=O)C2(C)CC2(Br)Br)cc1 (centres undefined)	-11%
42	Cc1c(NC(=O)CCSc2ccc(Cl)cc2)c(=O)n(-c2ccccc2)n1C	8%
43	CCSc1nc2ccccc2c(=O)n1C1CCOC(C)(C)C1 (centres undefined)	2%
44	CCCc1nnc(NC(=O)CSc2nc3ccccc3[nH]2)s1	14%
45	Cc1ccc(NC(=O)CN2C(=O)NC3(CCCC3)C2=O)nc1	-2%
46	Cc1nc2cc(NC(=O)Nc3ccc(N4CCOCC4)cc3)ccc2n1C	17%
47	Cc1cc(Br)ccc1NC(=O)CNC(=O)Cc1ccc(S(=O)(=O)N2CCOCC2)s1	-12%
48	COC(=O)c1ccc(C(=O)OC)c(NC(=O)CN(c2ccc3c(c2)OCO3)S(C)(=O)=O)c1	2%
49	COc1ccc(CN2C[C@]3(CO)O[C@@H](CO)C[C@@H]3S2(=O)=O)cc1	-18%
50	O=C(c1ccco1)N(CCC(c1ccccc1)c1ccco1)Cc1ccccc1 (centres undefined)	-18%

No.	Molecule	VDR inh
51	C=CCNC(=S)NNC(=O)c1cccn(Cc2ccc(Cl)c(Cl)c2)c1=O	0%
52	COc1ccc(C(=O)NC(C)c2ccccc2)cc1Br (centres undefined)	-1%
53	COc1cc(O)sc1C=Nc1ccc(Cl)cc1	-1%
54	O=C(NC1CCN(S(=O)(=O)c2cccc(F)c2)CC1)c1cccc(F)c1	-3%
55	COc1cc(CC(=O)NCc2ccccn2)cc(OC)c1OC	-12%
56	CN(Cc1ccccc1)C(=O)CNC(=O)Cn1cnc2ccccc2c1=O	-11%
57	CCN(CC)CCNC(=O)Cn1ncc2c3ccccc3n(Cc3ccccc3C)c2c1=O	13%
58	CC(OC(=O)CCCCCN=C1NS(=O)(=O)c2ccccc21)C(=O)Nc1cc(Cl)cc(Cl)c1 (centres undefined)	-1%
59	Cc1ccc(Cn2c(C(C)Nc3nc(-c4ccc(F)cc4)cs3)nc3cc(Cl)c(Cl)cc32)cc1 (centres undefined)	-2%
60	O=C(NCc1ccc2c(c1)OCO2)NC12CC3CC(CC(C3)C1)C2	7%
61	COc1ccc2nc(NC(=O)c3cccs3)sc2c1	5%
62	CCN(CC)CCNC(=O)/C(=C/c1cn(CC)c2ccccc12)NC(=O)c1cc(OC)c(OC)c(OC)c1	-18%
63	O=C(NC1CC1)c1cccc2c1C(=O)c1ccc(N3CCC(Cc4ccccc4)CC3)cc1S2(=O)=O	-13%
64	COc1ccc(N2CCN(CCNC(=O)CCN3C(=O)COc4ccccc43)CC2)cc1	8%
65	COCCNC(=O)/C(C#N)=C/c1cc(C(C)C)c(OC)cc1C	6%
66	CCc1ccc(S(=O)(=O)c2c[nH]c3cc(OC)c(OC)cc3c2=O)cc1	-15%
67	Cn1nc(-c2ccccc2F)c2cc(C(=O)NCc3ccc(Cl)cc3)sc21	-7%
68	COc1ccc(CNc2n[nH]c(-c3ccco3)n2)cc1OC	-2%
69	Cc1ccc(S(=O)(=O)Nc2cccc(C(=O)NCC(c3ccco3)N(C)C)c2)cc1F (centres undefined)	3%
70	Cc1sc2ccccc2[n+]1CC(=O)c1ccccc1	28µM*
71	CCOCCCn1c(=N)c(C(=O)NC(C)c2ccccc2)cc2c(=O)n3cc(C)ccc3nc21 (centres undefined)	0%
72	Cc1nc(NC(=O)COC(=O)C(C)NC(=O)c2ccccc2)c(Cl)cc1Cl (centres undefined)	-7%
73	Cc1ccccc1C(=O)NCCOc1ccccc1Cl	-5%
74	O=C(Cn1c(=O)n(Cc2ccc(F)cc2)c(=O)c2sc3ccccc3c21)NCc1ccccc1Cl	-1%
75	Cc1cc(C)c(OCC(=O)N(Cc2cccs2)C2CCS(=O)(=O)C2)c(C)c1 (centres undefined)	-10%

Two entries picked at random from the list so far:
No.	Molecule	VDR inh
67	Cn1nc(-c2ccccc2F)c2cc(C(=O)NCc3ccc(Cl)cc3)sc21	-7%
46	Cc1nc2cc(NC(=O)Nc3ccc(N4CCOCC4)cc3)ccc2n1C	17%

The list continues.
No.	Molecule	VDR inh
76	COc1ccccc1NC(=O)Cc1cccc2ccccc12	14%
77	CCOc1ccc(-c2cc(C(=O)N/N=C/c3ccc(O)cc3)c3ccccc3n2)cc1	?
78	Cc1cccc(NC(=O)CSc2ncc3c(n2)-c2ccccc2N(Cc2ccc(F)cc2)S3(=O)=O)c1C	2%
79	O=C(c1ccc(Br)o1)N1CCN=C1SCc1cccc(F)c1	-9%
80	O=C1CCc2cc(S(=O)(=O)N3CCN(Cc4ccc5c(c4)OCO5)CC3)ccc2N1	3%
81	Cc1cccc(N2CCN(C(=O)c3cc(S(=O)(=O)N4CCCC4)cn3C)CC2)c1C	1%
82	O=C(CSc1nc2c([nH]c3ccccc32)c(=O)n1-c1ccccc1)Nc1ccccc1C(F)(F)F	15%
83	Cc1[nH]n(-c2cccc(Cl)c2)c(=O)c1C=NCc1ccco1	6%
84	Cc1ccc(S(=O)(=O)N(C)C)cc1NC(=O)CN1C(=O)NC2(CCCCCCC2)C1=O	-6%
85	COc1ccc(CNC(=O)Cn2cccc2C(=O)c2ccccc2C)cc1	11%&7%
86	COc1ccc(CNC(=O)CN2C(=O)NC(C)(c3cccc4ccccc34)C2=O)cc1OC (centres undefined)	0%
87	Cc1cccc(CCNC(=O)CCc2c(C)nc3c(c(C)nn3-c3ccccc3)c2C)c1	-7%
88	CC(Cc1ccccc1)NC(=O)c1ccc([N+](=O)[O-])cc1 (centres undefined)	3%
89	Cc1ccc(OCC(=O)Nc2ccccc2F)cc1	0%
90	COc1ccc2nc(NC(=O)CCc3cc(OC)c(OC)c(OC)c3)sc2c1	-18%
91	CCC1N=C(SC)NC(C)=C1C(=O)c1ccccc1 (centres undefined)	-16%
92	COc1ccc(NC(=O)c2csc3c2CCCCC3)cc1	-2%
93	CC1(C)CC(=O)C(C2C3=C(CC(C)(C)CC3=O)Oc3ccccc32)=C(O)C1 (centres undefined)	5%
94	CCN(c1ccccc1)S(=O)(=O)c1ccc(Cl)c(NC(=O)CSc2n[nH]c(N)n2)c1	-11%
95	COc1ccc(-c2noc(CC(=O)Nc3ccc(F)cc3F)n2)cc1	12%
96	CCC1SC(N)=NC1=O (centres undefined)	8%
97	COc1ccccc1NC(=O)CS(=O)(=O)c1cn(CC(=O)N2CCCC2)c2ccccc12	5%
98	CCc1c(C)sc(NC(=O)/C=C/c2ccc3c(c2)OCO3)c1C(=O)OC	9%
99	COc1ccc([N+](=O)[O-])cc1N(CC(=O)N1CCOCC1)S(C)(=O)=O	-9%
100	COc1cc(/C=N/N2CCN(Cc3ccc(C)cc3)CC2)cc(OC)c1O	-23%

6 entries already listed, ordered by their value in VDR inh, lowest first.
| cpd | Structure | VDR inh |
| --- | --- | --- |
| 100 | COc1cc(/C=N/N2CCN(Cc3ccc(C)cc3)CC2)cc(OC)c1O | -23% |
| 79 | O=C(c1ccc(Br)o1)N1CCN=C1SCc1cccc(F)c1 | -9% |
| 87 | Cc1cccc(CCNC(=O)CCc2c(C)nc3c(c(C)nn3-c3ccccc3)c2C)c1 | -7% |
| 86 | COc1ccc(CNC(=O)CN2C(=O)NC(C)(c3cccc4ccccc34)C2=O)cc1OC (centres undefined) | 0% |
| 81 | Cc1cccc(N2CCN(C(=O)c3cc(S(=O)(=O)N4CCCC4)cn3C)CC2)c1C | 1% |
| 93 | CC1(C)CC(=O)C(C2C3=C(CC(C)(C)CC3=O)Oc3ccccc32)=C(O)C1 (centres undefined) | 5% |

(more compounds)
No.	Molecule	VDR inh
101	COc1ccc(/C=N/Nc2nc3ccccc3c(=O)n2-c2ccccc2)cc1OC	-1%
102	O=C(NCc1ccc(Cl)cc1)c1ccc(-c2ccccc2C(F)(F)F)o1	-11%
103	COC(=O)C1=C(C)N(Cc2ccccc2)C(=NCc2cccc(Cl)c2)N[C@H]1c1ccccc1	-6%
104	Cc1cc(Cl)c(OCCCN(C)C)c(Br)c1	-5%
105	COc1ccc(NC(=O)C(=O)NNC(=O)c2cccs2)cc1	-8%
106	CC(C)(CNc1ccc(C(F)(F)F)cc1[N+](=O)[O-])N1CCOCC1	-3%
107	Cc1ccc2[nH]c3c(=O)n(CC(=O)N4CCCCC4)ncc3c2c1	26%
108	COc1cccc(CNC(=O)CN2C(=O)COc3ccc(S(=O)(=O)N4CCC(C)CC4)cc32)c1	-20%
109	Clc1ccccc1-c1ccc2ncnc(NC3CCNCC3)c2c1	-5%
110	CCN(Cc1ccccc1)C(=O)C1CCN(Cc2ccc(SC)cc2)CC1	1%
111	CCOc1ccc(OCCC(=O)OCC(=O)Nc2cc(OCC)c(N3CCOCC3)cc2OCC)cc1	18%
112	COc1ccccc1NC(=O)C(C)NS(=O)(=O)c1ccc(F)cc1 (centres undefined)	-10%
113	CC(C)=C(NC(=O)c1ccccc1Br)C(=O)NCCc1nc2ccccc2[nH]1	3%
114	CCOc1nc(Nc2ccc(OC)cc2OC)nc(OCC)n1	-7%
115	COc1ccc(Cn2c(CCC(=O)Nc3ccc(C)cc3)nc3cccnc32)cc1	-17%&-29%
116	CC1CCN(S(=O)(=O)c2ccc(NC(=O)Cc3ccc(S(=O)(=O)N4CCOCC4)s3)cc2)CC1	1%
117	O=C(NCCC1=CCCCC1)c1ccc2c(c1)N(Cc1ccccc1F)C(=O)c1ccccc1S2(=O)=O	-11%
118	CCOC(=O)N1CCN(C(=O)CCS(=O)(=O)c2cc3c(cc2Cl)NC(=O)CO3)CC1	-2%
119	O=C(NOCc1cscn1)Nc1ccccc1	3%
120	CCn1c(CNc2nc(-c3ccccc3)cs2)nnc1SCC(=O)NCc1ccco1	?
121	CCOC(=O)N1CCN(C(=O)c2c(C)nn(-c3cccc(C)c3)c2-n2cccc2)CC1	-5%

Screening results: PubChem BioAssay, National Center for Advancing Translational Sciences (NCATS)
